STAT3 binder: binds human STAT3 on microarray; Small molecule microarray, His-STAT3 binding, anti-His fluorescence; calls only; hit rate 0.2% among 17,000;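 active = compounds whose four printed spots each show fluorescence over background unusually high for their array block, chance value under 7%; compounds were printed on slides so no solution concentration is given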;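 note: about 2 pmol printed per array spot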
Target sequence (P40763 whole entry, looked up): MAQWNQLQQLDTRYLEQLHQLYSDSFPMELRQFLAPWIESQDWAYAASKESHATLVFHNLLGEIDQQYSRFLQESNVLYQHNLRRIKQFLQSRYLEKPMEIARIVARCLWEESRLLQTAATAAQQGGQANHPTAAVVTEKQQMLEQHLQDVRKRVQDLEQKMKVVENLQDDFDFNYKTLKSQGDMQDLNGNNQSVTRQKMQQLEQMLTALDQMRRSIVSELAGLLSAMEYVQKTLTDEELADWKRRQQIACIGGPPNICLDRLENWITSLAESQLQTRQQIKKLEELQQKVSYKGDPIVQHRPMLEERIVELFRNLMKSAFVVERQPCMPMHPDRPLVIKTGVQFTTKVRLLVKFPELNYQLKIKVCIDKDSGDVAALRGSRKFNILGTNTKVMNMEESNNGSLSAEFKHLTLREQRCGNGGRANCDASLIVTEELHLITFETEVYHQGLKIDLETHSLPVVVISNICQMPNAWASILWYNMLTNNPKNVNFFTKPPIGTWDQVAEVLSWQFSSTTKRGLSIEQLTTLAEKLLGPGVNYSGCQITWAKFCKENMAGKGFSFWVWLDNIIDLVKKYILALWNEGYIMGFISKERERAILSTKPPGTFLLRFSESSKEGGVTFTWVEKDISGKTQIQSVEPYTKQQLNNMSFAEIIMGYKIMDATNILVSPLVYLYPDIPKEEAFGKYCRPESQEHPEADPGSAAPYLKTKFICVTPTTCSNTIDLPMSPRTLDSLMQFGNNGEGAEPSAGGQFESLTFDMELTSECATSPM
mut p53 SMM: mutant p53 (human) binding. calls only. hit rate 0.4% among 17,000. small molecule microarray binding, anti-GST fluorescence;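 active = compounds whose four printed spots each glow above background more than chance allows, each with a p-value under 7%; compounds were printed on slides so no solution concentration is given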;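 note: about 2 pmol printed per array spot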
ID4 binder: binders of human ID4 protein | AID 624137 | small molecule microarray, Flag-ID4 binding, fluorescence F/B | calls only | hit rate 1.2% among 31,000 | P47928;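 active = spot signal over background at p below 0.07 in all four prints; compounds were printed on slides so no solution concentration is given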;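 note: a binder raises fluorescence above local background on the spot; about 2 pmol printed per array spot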
Target sequence (P47928 whole entry, looked up): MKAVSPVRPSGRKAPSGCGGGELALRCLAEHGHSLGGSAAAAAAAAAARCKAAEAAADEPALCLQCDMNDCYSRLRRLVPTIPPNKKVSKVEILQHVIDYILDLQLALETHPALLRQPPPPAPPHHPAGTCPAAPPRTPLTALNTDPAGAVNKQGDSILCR
c-Myc SMM: c-Myc (human) binding; P01106; small molecule microarray, His-c-Myc binding, anti-His fluorescence; calls only; hit rate 1.5% among 17,000;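 active = spot fluorescence over background with P-value below 7% in all four replicate spots, showing protein binding; compounds were printed on slides so no solution concentration is given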;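 note: score is binary with 100 for all four spots passing and 0 otherwise; about 2 pmol printed per array spot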
Calls only; i = inactive; / = no result given; + = active, no number. An unsorted share of the library, and some 3.7% of all compounds hit somewhere here.

SMILES | STAT3 binder | mut p53 SMM | ID4 binder | c-Myc SMM
Cn1c(Cc2ccc(Cl)cc2)nnc1SCc1nc2ccccc2c(=O)n1-c1cccc(C(F)(F)F)c1 | i | i | i | i
C[C@@H]1CCCCO[C@@H](CN(C)Cc2ccncc2)[C@H](C)CN([C@H](C)CO)C(=O)c2cc(NS(C)(=O)=O)ccc2O1 | i | i | i | i
C[C@@H]1CN([C@@H](C)CO)C(=O)Cc2cc(NC(=O)C3CC3)ccc2O[C@@H]1CN(C)Cc1ccc2c(c1)OCO2 | i | i | i | i
COc1cc(O)c(C(=O)/C=C/c2ccc(OC)c(OC)c2)c(OC)c1 | i | i | i | i
C[C@@H]1CN([C@@H](C)CO)C(=O)c2cc(NC(=O)Nc3ccc4c(c3)OCO4)ccc2O[C@@H](C)CCCCO[C@@H]1CN(C)Cc1ccccc1 | i | + | i | i
C[C@@H]1CN([C@H](C)CO)C(=O)c2cc(NC(=O)CCC(F)(F)F)ccc2O[C@@H](C)CCCCO[C@@H]1CN(C)C(=O)c1ccncc1 | i | i | i | i
CNC[C@@H]1Oc2ccc(NC(=O)Cc3cn(C)c4ccccc34)cc2CC(=O)N([C@@H](C)CO)C[C@@H]1C | i | i | i | i
Cc1ccccc1NC(=O)CSc1nc(O)cc(=O)[nH]1 | i | i | i | i
C[C@H](CO)N1C[C@H](C)[C@@H](CN(C)C(=O)Nc2cccc3ccccc23)Oc2ccc(NC(=O)CCCN(C)C)cc2C1=O | i | i | + | i
O=c1[nH]c2cc(C(F)(F)F)ccc2n1-c1cc(C(F)(F)F)ccc1O | i | i | i | i
C[C@H](CO)N1C[C@H](C)[C@@H](CN(C)C(=O)Nc2cccc3ccccc23)Oc2c(NS(=O)(=O)c3ccccc3)cccc2C1=O | i | i | i | i
C#CCNC(=O)C1=C[C@H](C2CCCCC2)C[C@H](OCCCCO)O1 | i | i | i | i
COc1ccc(NC(=O)Nc2ccc3c(c2)C(=O)N([C@H](C)CO)C[C@H](C)[C@@H](CN(C)S(=O)(=O)c2ccc(OC)cc2)OCCCC[C@H](C)O3)cc1 | i | i | / | i
C[C@@H]1CN([C@H](C)CO)C(=O)c2cc(NS(C)(=O)=O)ccc2O[C@H]1CN(C)CC1CC1 | i | i | i | i
C[C@H]1CN([C@@H](C)CO)C(=O)c2cccc(NS(C)(=O)=O)c2O[C@H]1CN(C)Cc1ccncc1 | i | i | i | i
Oc1ccccc1CNc1ccc2c(c1)ncn2C1CCCCC1 | i | i | i | +
COc1ccc2[nH]c(C(=O)O)c(CCC(=O)O)c2c1 | i | i | i | i
CCO[C@H]1OC(C(=O)N2CCCCCCC2)=C[C@@H](C2CC2)[C@@H]1CCCO | i | i | / | i
C[C@@H]1CN([C@@H](C)CO)C(=O)c2cccc(NC(=O)Nc3ccc(C(F)(F)F)cc3)c2O[C@@H]1CN(C)Cc1ccncc1 | i | i | i | i
Cc1cc([N+](=O)[O-])nn1Cc1ccc(C(=O)Nc2ccc(CC#N)cc2)cc1 | i | i | i | i
Cc1cc(NC(=O)C2CC(c3cccc(Br)c3)=NO2)n(-c2ccccc2)n1 (configuration not stated) | i | i | i | i
C[C@@H]1CN([C@H](C)CO)C(=O)CCCn2cc(nn2)CO[C@@H]1CN(C)S(=O)(=O)c1ccc(Oc2ccccc2)cc1 | i | i | i | i
C[C@@H]1CN([C@@H](C)CO)C(=O)CCCn2cc(nn2)CO[C@@H]1CN(C)C(=O)Nc1ccnc(N2CCOCC2)c1 | i | i | i | i
COc1ccc(S(=O)(=O)N(C)C[C@H]2Oc3ccc(NC(=O)NC(C)C)cc3CC(=O)N([C@H](C)CO)C[C@H]2C)cc1 | i | i | / | i
O=C(NC1CC1)C1=C[C@@H](c2coc3ccccc3c2=O)C[C@@H](OCc2ccc(CO)cc2)O1 | i | i | / | i
C[C@@H]1CN([C@@H](C)CO)C(=O)c2cc(NC(=O)Nc3ccc(F)cc3)ccc2O[C@@H](C)CCCCO[C@@H]1CN(C)C | i | i | i | i
C[C@@H]1CCCCO[C@@H](CN(C)C(=O)Nc2ccc(C(F)(F)F)cc2)[C@H](C)CN([C@@H](C)CO)C(=O)c2cc(NC(=O)Nc3ccc4c(c3)OCO4)ccc2O1 | i | i | / | i
C[C@@H]1CN([C@@H](C)CO)C(=O)c2cccc(NS(=O)(=O)c3cn(C)cn3)c2O[C@@H]1CN(C)Cc1ccc(C(F)(F)F)cc1 | i | i | i | i
C[C@@H]1CN([C@H](C)CO)C(=O)c2cc(NC(=O)CCCN(C)C)ccc2O[C@H]1CN(C)C | i | i | i | i
Cc1noc(C)c1NC(=O)Nc1ccc2c(c1)C(=O)N([C@@H](C)CO)C[C@H](C)[C@@H](CN(C)C)OCCCC[C@@H](C)O2 | i | i | i | i
Cc1c(OCC(=O)Nc2ccc3c(c2)OCCO3)ccc2c1oc(=O)c1ccccc12 | i | i | i | i
O=C(NCc1ccccn1)c1ccc(NC(=O)c2ccco2)cc1 | i | i | i | i
C[C@@H]1CN([C@H](C)CO)C(=O)c2cc(NC(=O)C3CCCCC3)ccc2O[C@@H](C)CCCCO[C@H]1CN(C)Cc1ccc(C(=O)O)cc1 | i | i | i | i
O=C(Cn1cc(CO)c2ccccc21)Nc1ccccc1 | i | i | i | i
Cc1cc(C(=O)CSc2nnc3sc4ccccc4n23)c(C)n1Cc1ccccc1 | i | i | i | i
COc1ccc(S(=O)(=O)Nc2ccc3c(c2)CC(=O)N([C@H](C)CO)C[C@@H](C)[C@H](CN(C)S(=O)(=O)c2cn(C)cn2)O3)cc1 | i | i | i | i

Quoted at random: 2 entries already listed
SMILES | STAT3 binder | mut p53 SMM | ID4 binder | c-Myc SMM
C[C@@H]1CN([C@H](C)CO)C(=O)c2cc(NC(=O)C3CCCCC3)ccc2O[C@@H](C)CCCCO[C@H]1CN(C)Cc1ccc(C(=O)O)cc1 | i | i | i | i
C[C@@H]1CN([C@H](C)CO)C(=O)c2cc(NC(=O)CCCN(C)C)ccc2O[C@H]1CN(C)C | i | i | i | i

More compounds follow:
SMILES | STAT3 binder | mut p53 SMM | ID4 binder | c-Myc SMM
CC(C)NC(=O)[C@@]1(Cc2ccccc2I)c2ccccc2C(=O)N(Cc2ccccc2C(F)(F)F)[C@H]1c1ccc(CO)cc1 | i | i | i | i
C[C@H](CO)N1C[C@H](C)[C@H](CN(C)C(=O)NC2CCCC2)Oc2ncc(-c3cccc(C(F)(F)F)c3)cc2C1=O | i | i | i | i
O=C(CSc1nnc(-c2ccccc2)n1-c1ccccc1)Nc1cccc(Br)c1 | i | i | i | i
NC(=Nc1ccccc1)NC(=O)c1nc(Cl)c(N)nc1N | i | i | i | i
NC(=O)NCC#Cc1ccc2c(c1)[C@]1(C(=O)N2)[C@H](C(=O)N2CCCCCCC2)[C@H]2C(=O)O[C@H](c3ccccc3)[C@H](c3ccccc3)N2[C@@H]1c1ccc(O)cc1 | i | + | i | +
C[C@@H]1CN([C@@H](C)CO)C(=O)Cc2cc(NC(=O)Nc3cccc4ccccc34)ccc2O[C@H]1CN(C)Cc1ccc(C(F)(F)F)cc1 | i | i | / | i
C[C@H](CO)N1C[C@H](C)[C@H](CN(C)C(=O)c2ccncc2)OCCCC[C@H](C)Oc2ccc(NC(=O)Cc3ccccc3)cc2C1=O | i | i | i | i
C[C@@H]1CN([C@H](C)CO)C(=O)c2cccc(NC(=O)c3cnccn3)c2O[C@@H]1CN(C)CC1CC1 | i | i | i | i
CC1CC(=O)C2C(O)(C1)CC(O)C13OC21C(=O)c1cccc(O)c1C3O (configuration not stated) | i | i | i | i
CCC(=O)Nc1ccccc1-c1nnc(SCc2ccccc2)[nH]c1=O | i | i | i | i
Cc1cc2c(CO)cc(O)cc2o1 | i | i | / | i
COc1cc(O)c2c(c1)O[C@H](c1ccc(O)cc1)[C@@H](O)C2=O | i | i | i | i
O=C(OCC1OC(Oc2ccc(O)cc2COC(=O)C2(O)C(O)CCC(O)C2O)C(O)C(O)C1O)c1ccccc1 (configuration not stated) | i | i | i | i
CC(C)NC(=O)Nc1ccc2c(c1)C(=O)N([C@@H](C)CO)C[C@@H](C)[C@H](CN(C)S(=O)(=O)c1ccccc1)OCCCC[C@@H](C)O2 | i | i | i | i
CCOC(=O)C1=C(C)Nc2ncnn2C1c1ccccn1 (configuration not stated) | i | i | i | i
CC(Sc1nnc(N)s1)C(=O)Nc1cccc(Cl)c1 (configuration not stated) | i | i | i | i
Nc1ccc(-c2cc(=O)c3cc(O)ccc3o2)cc1 | i | i | i | i
CCOc1ccc(C)cc1S(=O)(=O)Nc1cccnc1 | i | i | i | i
CCCN1C(=O)C(NS(=O)(=O)c2ccc(NC(C)=O)cc2)(C(F)(F)F)C2=C1CC(C)(C)CC2=O (configuration not stated) | i | i | i | i
COc1ccc([C@H]2C[C@H]3C(Br)=CC2C(=O)[C@]32CO2)cc1 | i | i | i | i
COc1cc(-c2oc3cc(O)cc(O)c3c(=O)c2OC2OC(CO)C(O)C(O)C2O)ccc1O (configuration not stated) | i | i | i | i
C[C@H]1CN([C@@H](C)CO)C(=O)c2cc(NC(=O)Nc3ccc(F)cc3)ccc2O[C@@H]1CN(C)Cc1ccc2c(c1)OCO2 | i | i | i | i
C[C@@H]1CN([C@H](C)CO)C(=O)c2cccc(NC(=O)Nc3ccc(C(F)(F)F)cc3)c2O[C@@H]1CN(C)Cc1ccc(C(=O)O)cc1 | i | i | i | i
C[C@@H]1CN([C@@H](C)CO)C(=O)CCCn2cc(nn2)CO[C@@H]1CN(C)C(=O)c1ccc2ccn(C)c2c1 | i | i | i | i
Cc1ccc(S(=O)(=O)N(C)C[C@H]2Oc3ccc(NS(C)(=O)=O)cc3C(=O)N([C@H](C)CO)C[C@@H]2C)cc1 | i | i | i | i
CC(C)NC(=O)Nc1ccc2c(c1)C(=O)N([C@@H](C)CO)C[C@H](C)[C@H](CN(C)Cc1ccncc1)OCCCC[C@@H](C)O2 | i | i | i | i
C[C@H]1CN([C@@H](C)CO)C(=O)c2cc(NC(=O)Nc3ccc4c(c3)OCO4)ccc2O[C@H]1CN(C)Cc1ccc(C(F)(F)F)cc1 | i | i | i | i
COc1ccc([Si](C)(C)[C@@H]2[C@@H](CCn3cc(CCO)nn3)O[C@]3(C(=O)N(Cc4cccc(N5CCOC5=O)c4)c4ccccc43)[C@H]2C)cc1 | i | i | i | i
COc1ccc(NC(=O)CSc2nc(C)c3c(n2)CCCC3)c([N+](=O)[O-])c1 | i | i | i | i
Cc1noc(C)c1NC(=O)N(C)C[C@@H]1Oc2ccc(NC(=O)Nc3ccc4c(c3)OCO4)cc2C(=O)N([C@H](C)CO)C[C@H]1C | i | i | i | i
C[C@H](CO)N1C[C@H](C)[C@H](CN(C)C(=O)C2CCCCC2)OCCCC[C@H](C)Oc2ccc(NS(=O)(=O)c3cccs3)cc2C1=O | + | i | i | i
C[C@@H]1CN([C@H](C)CO)C(=O)c2cccc(NC(=O)c3ccncc3)c2O[C@H]1CN(C)C(=O)Nc1ccccc1 | i | i | i | i
C[C@H](CO)N1C[C@H](C)[C@@H](CN(C)C)OCCCC[C@H](C)Oc2ccc(NC(=O)Nc3ccccc3)cc2C1=O | i | i | i | i
CC(C)NC(=O)N(C)C[C@@H]1OCCCC[C@@H](C)Oc2ccc(NS(=O)(=O)c3ccccc3)cc2C(=O)N([C@@H](C)CO)C[C@H]1C | i | i | i | i
O=C(COc1ccccc1CO)Nc1ccccc1 | i | i | i | i
C[C@@H]1CN([C@@H](C)CO)C(=O)c2cccc(NC(=O)C3CCCCC3)c2O[C@@H]1CN(C)C(=O)Nc1ccc(F)cc1 | i | i | / | i

Record cards, from the list above. Order of values: STAT3 binder | mut p53 SMM | ID4 binder | c-Myc SMM
Cc1noc(C)c1NC(=O)N(C)C[C@@H]1Oc2ccc(NC(=O)Nc3ccc4c(c3)OCO4)cc2C(=O)N([C@H](C)CO)C[C@H]1C is listed with i | i | i | i
C[C@H]1CN([C@@H](C)CO)C(=O)c2cc(NC(=O)Nc3ccc4c(c3)OCO4)ccc2O[C@H]1CN(C)Cc1ccc(C(F)(F)F)cc1 is listed with i | i | i | i
C[C@@H]1CN([C@H](C)CO)C(=O)c2cccc(NC(=O)c3ccncc3)c2O[C@H]1CN(C)C(=O)Nc1ccccc1 is listed with i | i | i | i
COc1ccc([Si](C)(C)[C@@H]2[C@@H](CCn3cc(CCO)nn3)O[C@]3(C(=O)N(Cc4cccc(N5CCOC5=O)c4)c4ccccc43)[C@H]2C)cc1 is listed with i | i | i | i
CC(C)NC(=O)N(C)C[C@@H]1OCCCC[C@@H](C)Oc2ccc(NS(=O)(=O)c3ccccc3)cc2C(=O)N([C@@H](C)CO)C[C@H]1C is listed with i | i | i | i

More structures follow.
SMILES | STAT3 binder | mut p53 SMM | ID4 binder | c-Myc SMM
CNC[C@H]1Oc2ccc(NS(=O)(=O)c3ccc(Cl)cc3)cc2CC(=O)N([C@H](C)CO)C[C@@H]1C | i | i | / | i
Cc1cc(O)c2c(c1)C(=O)C1=C(C2=O)C(O)C(O)C(O)C1O (configuration not stated) | i | i | i | i
O=C(O)CCN1C(=O)c2cccc3c([N+](=O)[O-])ccc(c23)C1=O | i | i | i | +
C[C@H]1CCCCO[C@H](CN(C)C(=O)Cc2ccccc2)[C@@H](C)CN([C@@H](C)CO)C(=O)c2cc(NC(=O)Nc3ccccc3)ccc2O1 | i | i | i | i
Cc1c(C(=O)NC(=S)NCc2cccnc2)oc2ccccc12 | i | i | i | i
CNC[C@H]1Oc2ccc(NS(C)(=O)=O)cc2CC(=O)N([C@@H](C)CO)C[C@@H]1C | i | i | + | i
